Source: PubChem BioAssay (National Center for Advancing Translational Sciences (NCATS))
Prx2 Sm inh: Schistosoma Mansoni Peroxiredoxins (Prx2); Schistosoma mansoni peroxiredoxin 2 (Prx2); S. mansoni Prx2 activity coupled to TGR/GSH (TGR is thioredoxin glutathione reductase), NADPH fluorescence loss, qHTS; some inactives read as strong as hits; Potency, µM; actives 0.07% (n = 65,000); AID 448, 2006; active means full or partial inhibition curve with a strong effect at the top dose; inconclusive means weaker partial or single-point curve; inactive means no accepted curve; note: series up to 57 µM; many of its hits are not listed in these tables
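Purified S. mansoni TGR and Prx2 in pH 7.4 phosphate buffer with EDTA and Tween-20 were preincubated with compounds for 15 min. Further NADPH/GSH was added, then a 2.5 mM H2O2 aliquot initiated turnover, followed kinetically by NADPH fluorescence.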
LT uptake inh: qHTS Assay for Anthrax Lethal Toxin Internalization; Cells, anthrax lethal toxin internalization, FRET ratio (460/530); Potency, µM (series often up to 40 µM), for the others: at the top dose activity change, negative = inhibition, hits mostly inhibitors; actives 0.67% (n = 70,000); active = well fitted falling ratio curve with the 530 nm signal flat; inconclusive = other ratio curves, or a change in one channel alone; inactive = flat curves in the ratio and both channels; the % refers to the ratio; note: % is set by controls: 0 for no effect and ±100 for the full control effect; nearly all actives have a fitted effect of over 50% in size; tested in ME-180 cells; beta-lactamase reporter
The depositor's hits bear a star; u = inconclusive; x = not tested or not shown; [ ] = dose if it differs, or a comment. Potency is the fitted concentration of half-maximal effect. These rows are one share of the data; count on the stated rates, not on these rows.

SMILES	Prx2 Sm inh	LT uptake inh
COc1ccc(CCCc2nnc(SCC(=O)Nc3ncc(C)s3)o2)cc1	>57	x
CCCn1c(SCC(=O)Nc2nc(C)c(C(=O)OC)s2)nnc1C(C)C	>57	-6.2%
CCCNc1ncnc2[nH]ncc12	>57	0.5%[8 µM]
COc1ccc(-c2c3c(=O)n(C)c(=O)n(C)c3cn2-c2cc(OC)ccc2OC)cc1	>57	u
CN(C)c1ccc(-c2nc(N(C)Cc3ccco3)c3ccccc3n2)cc1	>57	u
COc1ccccc1NC(=O)CSc1nc(O)cc(=O)[nH]1	>57	8.4%
C1CCCNCC1	x	-5.3%
O=C(Nc1ccc(S(=O)(=O)N2CCOCC2)cc1)C1CCCCC1	>57	-24.8%
CCC1=C(C[C@H]2NCCc3cc(OC)c(OC)cc32)C[C@H]2c3ccccc3CCN2C1	>57	-4.2%[8 µM]
COc1cccc(-c2nc(Nc3ccncc3)c3ccccc3n2)c1	>57	u
COC(=O)[C@H](C)NC(=O)Nc1ccc(S(N)(=O)=O)cc1	>57	-1.8%
CN1CCN(S(=O)(=O)c2ccc(NC(=O)c3ccco3)cc2)CC1	>57	3.8%
Cc1cc(C)cc(-c2nc(-c3ccncc3)no2)c1	>57	-25.4%
COc1ccccc1N1CCN(CCCNC(=O)Nc2ccccc2)CC1	>57	x
CCOC(=O)c1c(NC(=O)COC(=O)Cn2cnc3ccccc32)sc(C)c1C	>57	7.9%
CC1(C)CN=C(NCc2ccccc2Cl)S1	>57	x
CC1CCN(C(=O)CCNS(=O)(=O)c2ccccc2)CC1	>57	-5.8%
CN(C)CCSc1nc(N)c2c3c(sc2n1)CN(C)CC3	>57	u
Nc1cccc([N+](=O)[O-])c1	x	-3.6%
CCCCn1c(SCC(=O)Nc2nnc(C)s2)nc2c1c(=O)n(C)c(=O)n2C	>57	-9.9%
CCn1cc(C(=O)NCC2CCCO2)c2cc(OC)c(OC)cc2c1=O (centres undefined)	>57	-16.7%
CCCCc1cc(=O)oc2cc(OCc3nn[nH]n3)c(Cl)cc12	>57	-19.1%
N#Cc1c(NC(=O)c2nc3ncccn3n2)sc2c1CCCCC2	>57	-11.4%
O=C(Cn1ncc2c3ccccc3n(Cc3ccccc3F)c2c1=O)N1CCC2(CC1)OCCO2	>57	-2.8%
CN(C)C(=O)c1ccc(-c2nc(NC3CCNCC3)c3ccccc3n2)cc1	>57	5.1%

(next part)
SMILES	Prx2 Sm inh	LT uptake inh
Cn1c(CNC(=O)Cc2ccc3c(c2)OCO3)nnc1SCc1ccccc1	>57	-10.4%
O=P1(NC2CCCC2)COc2ccccc2OC1	>57	u
CC1Cc2ccccc2N1C(=O)Cn1cnc2ccccc2c1=O (centres undefined)	>57	-6.9%
Cc1cc(=O)oc2cc3c(cc12)OCCO3	>57	0.9%
COCCn1c(C)cc(C(=O)COC(=O)c2ccc(N3CCCC3=O)cc2)c1C	>57	-11.0%
COc1ccccc1-c1cc(C(=O)Nc2cc(C)nn2-c2ccccc2)no1	>57	u
COc1ccc(C(=O)NCC(c2ccc(F)cc2)N2CCOCC2)cc1S(=O)(=O)N1CCCC1 (centres undefined)	>57	17.0%
CC(C)CCN1CCc2nc(COc3ccccc3)c3c(c2C1)COC(C)C3 (centres undefined)	x	-11.0%[8 µM]
Cc1ccc(C(=O)Nc2cccc(C(=O)NCc3ccccc3)c2)o1	>57	-16.8%
CC(C)CC(c1nnnn1CC1CCCO1)N1CCN(c2cccc(Cl)c2)CC1 (centres undefined)	>57	-0.5%
COc1ccc(CNc2ncncc2-c2cccc(NS(C)(=O)=O)c2)c(OC)c1	>57	-5.1%
COCCn1c(C)nc2oc3ccc(Br)cc3c(=O)c2c1=O	>57	x
O=C(NC1=NC2CCCCC2N1)c1ccccc1 (centres undefined)	>57	x
O=C(OCc1ccc2c(c1)OCO2)c1ccc(S(=O)(=O)N2CCCCC2)cc1	x	-6.0%
CC(C)CCN1CCc2nc(-c3ccccc3)c3c(c2C1)COC(C)C3 (centres undefined)	x	1.5%[8 µM]
COc1ccccc1CNC(=O)[C@@H]1CCCN1C(=O)C1CCN(S(=O)(=O)c2ccc(C)cc2)CC1	>57	5.3%
c1ccc(COc2ccc(OCCOCCn3cncn3)cc2)cc1	>57	5.9%
C=CCn1c(Cc2cccs2)nnc1SCC(=O)Nc1cc(OC)cc(OC)c1	>57	20.2%
CCOC(=O)c1c(C)c(C(=O)N2CCN(c3cccc(Cl)c3)CC2)c(C)n1C	>57	0.6%
O=C(CC12CC3CC(CC(C3)C1)C2)NCC(=O)N1CCCC1	>57	28.1%
CCOC(=O)c1sc2nc(N3CCOCC3)c3c(c2c1N)CC(C)(C)N(C)C3	x	-2.4%
CCN(CC)CCOC(=O)c1cccc(Br)c1	>57	u
COc1ccc(N2C(=O)C(CC(=O)O)S/C2=C\C(C)=O)cc1 (centres undefined)	>57	-14.2%
COc1ccc(Cc2nnc(SCC(=O)Nc3nc(C)cs3)o2)cc1	>57	-11.6%
O=c1[nH][nH]c2nc(C(F)(F)F)cc(C(F)(F)F)c12	>57	-2.9%

New compounds follow:
SMILES	Prx2 Sm inh	LT uptake inh
CCOC(=O)c1cc(CC)sc1NC(=O)Cc1ccsc1	>57	u
COc1ccc(CN(Cc2cc3ccc(C)cc3[nH]c2=O)Cc2nnnn2C2CCCC2)cc1	>57	-3.4%
COc1cccc(N2CCN(Cc3ccc(Cl)cc3)CC2)c1	>57	-2.0%
C=CCNC(=O)c1ccc(C)cc1Cl	>57	-8.3%
COC(=O)c1ccc(COC(=O)c2ccccn2)cc1	>57	17.4%
COc1cccc(-c2nc(NCc3ccc(OC)cc3OC)c3ccccc3n2)c1	x	u
CS(=O)(=O)c1ccc2nc(NC(=O)C3C4C=CC(C4)C3C(=O)O)sc2c1 (centres undefined)	>57	2.0%
O=C(NCCC1=CCCCC1)N[C@@H](Cc1ccccc1)C(=O)O	>57	12.2%
Cc1cccc(CN2CCNC2=O)c1	>57	-0.5%
COc1ccc(N2CCN(C(c3ccccc3)c3nnnn3Cc3ccc(F)cc3)CC2)cc1 (centres undefined)	>57	-27.6%
CCOC(=O)C1CCCN(C(=O)C(C)Oc2ccc(Cl)cc2Cl)C1 (centres undefined)	>57	-10.0%
Cc1cc(-n2c(C)cc(C(=O)CSc3nnnn3-c3ccccc3)c2C)no1	>57	-28.1%
Cc1noc(C)c1C(=O)N1CCc2ccccc2C1	>57	-5.5%
O=C(CCS(=O)(=O)Cc1ccccc1F)N1CCc2ccccc2C1	>57	-4.0%
Nc1ccc2oc(-c3ccccn3)nc2c1	>57	0.2%
Nc1ncnc2c1ncn2[C@@H]1O[C@@H](CO)[C@H](O)[C@@H]1O	>57	u
COc1ccc(CCNC(=O)CSc2nnc(-c3cccc(C)c3)o2)cc1OC	>57	-5.9%
Cc1ccc(OCc2nnc(SCC(=O)CC(=O)Nc3ccccc3)o2)cc1	>57	u
Cc1c(/C=N/n2cnnc2)c2ccccc2n1C	x	2.6%
COc1ccc(C(CNC(=O)COc2ccccc2OC)N(C)C)cc1OC (centres undefined)	>57	-8.4%
COc1ccc(N(CC(=O)Nc2nc3ccc(C)cc3s2)S(=O)(=O)c2c(C)nn(C)c2C)cc1	>57	u
COc1ccc(CCNC(=O)C2=COCCO2)cc1	>57	6.1%
CCC1CCCCN1C(=O)CSc1nc(N)c(NC(=O)c2ccc(OC)c(OC)c2)c(=O)[nH]1 (centres undefined)	>57	u
CC(=O)c1cccc(NC(=O)c2cc(-n3cnnc3)ccc2Cl)c1	>57	0.5%
CCOc1cc(C(=O)N2CCc3cc(OC)c(OC)cc3C2)ccc1OC(F)F	>57	7.0%

Next part
SMILES	Prx2 Sm inh	LT uptake inh
O=C(CSc1ncccc1C(=O)O)c1ccccc1	x	-9.3%
C[C@@H]1[C@H]2C=C[C@@H]1[C@@H](c1c3ccc(=O)c(O)c-3oc3c(O)c(O)ccc13)[C@@H]2C(=O)O	>57	u
CCOC(=O)c1cnc(NCc2ccccc2)nc1C	>57	2.4%
COc1ccc(OC)c2[nH]c(=O)c(CCNS(=O)(=O)c3ccc(C)cc3)cc12	>57	20.0%
O=C(c1ccccc1)c1ccc(OCC(O)CN2CCOCC2)cc1 (centres undefined)	>57	3.2%
CCCN1CCO[C@@H]2c3cc(O)ccc3OC[C@@H]21	>57	-4.2%
COc1ccc(CCNC(=O)CSc2nc(-c3ccco3)cc(C(F)(F)F)n2)cc1OC	>57	-3.5%
CCC1(c2ccc(F)cc2)NC(=O)N(CC(=O)c2ccc[nH]2)C1=O (centres undefined)	>57	u
NC1(P(=O)(O)O)CCCCC1	>57	-6.6%[8 µM]
c1ccc(N2CCN(c3ccccc3)C2c2cccs2)cc1	x	u
CCCNC(=O)C1CCN(S(=O)(=O)c2ccc(Br)cc2)CC1	>57	x
C[C@H]1CCCC(=O)CCC/C=C/c2cc(O)cc(O)c2C(=O)O1	>57	u
O=C(Cc1cccs1)N1CCCC(c2nc3c(nnn3Cc3cccc(Cl)c3)c(=O)[nH]2)C1 (centres undefined)	>57	u
COCCNC(=O)c1ccc(C(=O)NCCOC)s1	>57	6.7%
COc1cc(OC)c(C2=NOC(C(=O)Nc3cc(C)nn3-c3ccccc3)C2)cc1Cl (centres undefined)	>57	u
Nc1nonc1-c1nc2ccccc2n1Cc1ccccc1	>57	u
Cc1ccc(Cl)cc1N1CCN(C(=O)C2CCN(S(=O)(=O)c3cnc[nH]3)CC2)CC1	>57	2.9%
Cc1ccc(Cn2nnc3c(=O)[nH]c(C4CCN(S(=O)(=O)c5cc(C)ccc5C)CC4)nc32)cc1	>57	10.0%
CC(C)(C)NC(=O)C(c1ccco1)N(C(=O)Cn1nnc(-c2ccc(F)cc2)n1)c1ccccc1 (centres undefined)	>57	3.6%
O=C1C(Cl)=C(NCC2CCCO2)C(=O)N1Cc1ccccc1 (centres undefined)	>57	0.3%
COc1ccc2c(c1)Cc1cc(N=[N+]([O-])c3ccc4c(c3)Cc3cc(OC)ccc3-4)ccc1-2	>57	-0.1%[8 µM]
COC(=O)[C@H]1C[C@@H]1[C@H](NC(=O)OCc1ccccc1)c1ccccc1	u	-1.8%
COc1ccc(NC(=O)c2cccc(Cn3cc(Br)cn3)c2)cn1	>57	x
O=C(Nc1ccon1)c1ccccc1Cl	>57	-8.1%
O=C(NCCC1=CCCCC1)c1ccc(F)c(S(=O)(=O)N2CCOCC2)c1	>57	-25.8%

Continuation.
SMILES	Prx2 Sm inh	LT uptake inh
CCN(CC)c1ncnc2sc(C(=O)N3CCN(c4ccccc4)CC3)c(C)c12	>57	2.5%
CC(Cc1ccccc1)C(=O)NCCO (centres undefined)	x	9.3%
Cc1ccc(S(=O)(=O)N2CCN(C(=O)C3Cc4ccccc4CN3C(=O)c3ccco3)CC2)cc1 (centres undefined)	>57	-3.5%
O=C(CCCn1c(=S)[nH]c2cc3c(cc2c1=O)OCO3)N1CCN(c2ccc(F)cc2)CC1	>57	u
COc1ccccc1C[C@@H](Cc1nc2ccccc2[nH]1)c1nc2ccccc2[nH]1	>57	u
O=C1c2ccccc2C(Nc2ccc3c(c2)OCO3)N1Cc1ccc2c(c1)OCO2 (centres undefined)	>57	u
CCC(C)(C)NC(=O)CN(Cc1ccc2c(c1)OCO2)C(=O)CCC(=O)Nc1ccccn1	>57	2.6%
COC(=O)c1[nH]c2ccc(Cl)cc2c1NC(=O)CCN1CCOCC1	>57	x
Cc1c2ccccc2c(CSC(=N)N)c2ccccc12	>57	6.3%[8 µM]
CCOC(=O)c1c(NC(=O)CSc2nnnn2C)sc(CC)c1C	>57	-4.2%
Cc1ccc(-c2nc(C3CCCN(S(=O)(=O)c4ccc(C(F)(F)F)cc4)C3)no2)cc1 (centres undefined)	>57	0.0%
CCCOc1ccc(C2/C(=C(/O)c3ccc(F)cc3)C(=O)C(=O)N2CCCN(C)C)cc1 (centres undefined)	>57	13.4%
CN1/C(=C\C(=O)c2ccco2)C(C)(C)c2ccccc21	>57	u
COP(=O)(OC)[C@@H](O)C(Cl)(Cl)Cl	>57	18.9%[3.58 µM]
Cc1nn(-c2ccc(Cl)cc2)c2sc(C(=O)N3CCN(C(=O)c4ccco4)CC3)cc12	>57	0.0%
CCOc1cc(S(=O)(=O)N(CC)CC)ccc1Br	>57	x
CCCCC(=O)Nc1ccc(NC(=O)CCCC)nc1	>57	-2.1%
CCN(Cc1nc2cc(OC)c(OC)cc2c(=O)[nH]1)C(=O)c1ccc(S(=O)(=O)N(C)C)cc1	>57	1.4%
